# E coli growth = inhibitors of Escherichia coli growth. 330,000 tested, 0.21% active. OD600 absorbance (test concentration not listed). OD600, 23 h; stronger effect = lower value;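 active = OD600 absorbance below the run mean of sample wells minus 3.6 SD, in any replicate, cut at about 0.56 in these data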;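 note: stock transfer was 300 nL into about 60 µL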
# An asterisk follows results filed as active; & = joins results of further samples. A portion of the library. The share of hits here may be higher or lower than overall.
no.	Compound	E coli growth
1	COc1cccc(C=NNC(=O)c2ccc(Cn3cc(Br)c([N+](=O)[O-])n3)o2)c1O	0.65
2	COc1ccc(C=NNC(=O)c2ccc(CN3c4cccc5cccc(c45)S3(=O)=O)cc2)cc1	0.69
3	O=C(NN=Cc1c[nH]c2ccccc12)c1cc(-c2ccc(-c3ccccc3)cc2)n[nH]1	0.72
4	CC(CC(=O)Nc1ccccc1C)=NNC(=O)Cc1csc(N)n1	0.71
5	CCCCC1COCCS(=O)(=O)N1Cc1cccc([N+](=O)[O-])c1 (stereo unspecified)	0.64
6	CC(=NNC(=O)c1cccc(S(=O)(=O)Nc2ccccc2Cl)c1)c1ccc(-n2ccnc2)cc1	0.65
7	Cc1cccc(S(=O)(=O)c2c(N)n(N=Cc3ccco3)c3nc4ccccc4nc23)c1	0.79
8	Cc1ccsc1C=NNc1nc2ccccc2s1	0.64
9	Cc1nnc(C)n1N=Cc1ccc(O)cc1	0.72
10	COC(=O)/C=C1\S/C(=N\N=CCC(=O)OC)NC1=O	0.64
11	CC1CC(=NNC(=O)c2cccc(F)c2)c2ccc(O)cc2C1 (stereo unspecified)	0.66
12	C=CCOc1ccc(C=NNC(=O)CN(c2cc(Cl)ccc2OC)S(=O)(=O)c2ccc(C)c([N+](=O)[O-])c2)cc1	0.73
13	COc1ccc(CC(=O)NN=C/C=C/c2ccc3c(c2)OCO3)cc1OC	0.61
14	CC(C)(C)CC(C)(C)c1ccc(OCC(=O)NN=Cc2ccc(S(=O)(=O)O)o2)cc1	0.65
15	Cn1c(=O)c2c(nc(NN=Cc3cccs3)n2Cc2ccccc2)n(C)c1=O	0.69
16	COC(=O)C1CC2CCC(O)CC2N1Cc1ccccc1OS(=O)(=O)c1ccc(C)cc1 (stereo unspecified)	0.72
17	C#CCOCCOCCOCCNc1nc(N2CCN(C(=O)C(C)n3cc(CCC(=O)O)nn3)CC2)nc(N2CCN(C(=O)C(C(C)O)n3cc(CCCCN)nn3)CC2)n1 (stereo unspecified)	0.69
18	CCOc1ccc(Br)cc1C1=CC(=O)CC(c2ccc(OC)cc2)C1 (stereo unspecified)	0.68
19	O=C(NN=Cc1cn(-c2ccccc2)nc1-c1ccc(F)cc1)c1ccc(Br)o1	0.77
20	Cc1noc(C)c1NC(=O)Nc1cccc2c1OC(CN(C)C(=O)Nc1ccccc1)C(C)CN(C(C)CO)C2=O (stereo unspecified)	0.7
21	O=[N+]([O-])c1ccccc1/C=C/C=NNc1nc(N2CCCCC2)nc(N2CCCCC2)n1	0.66
22	COc1ccc(C=Nn2cnc3c([nH]c4ccc(F)cc43)c2=O)cc1CN1CCCC1	0.67
23	O=S(=O)(N=C([O-])C[n+]1ccccc1)c1ccc(Cl)cc1	0.67
24	CCC(C)Sc1ccc(C2C3C(=O)N(C)C(=O)C3[C@]3(C(=O)OC)CCCN23)cc1 (stereo partly specified)	0.66
25	Cc1cc(NN=Cc2cccc(Cl)c2)nc(-n2nc(C)cc2C)n1	0.68
26	CC(C)C(NS(=O)(=O)c1ccccc1)C(=O)OCC(=O)NC(=O)c1cccn1C (stereo unspecified)	0.67
27	CC(C)(C)OC(=O)NN=Cc1cccnc1	0.67
28	CCOc1cc(C=NNC(=O)c2ccncc2)cc(Cl)c1OS(C)(=O)=O	0.64
29	CCOc1ccc(S(=O)(=O)Nc2ccc(C(=O)NN=Cc3c(C)nn(-c4ccccc4)c3N3CCCC3)cc2)cc1	0.68
30	COc1ccc(S(=O)(=O)N(C)CC2Oc3c(NC(=O)NC4CCCCC4)cccc3C(=O)N(C(C)CO)CC2C)cc1 (stereo unspecified)	0.71

# The list goes on:
no.	Compound	E coli growth
31	Cc1ccc(C=NN2CCN(Cc3ccccc3)CC2)cc1	0.65
32	NC(=S)NN=Cc1cccc(O)c1O	0.67
33	CCCc1ccc(-c2cc(C(=O)NN=Cc3ccc([N+](=O)[O-])o3)c3ccccc3n2)cc1	0.71
34	CC(C)(C)OC(=O)C(C)(C)ON=C(C(=O)O)c1csc(N)n1	0.69
35	O=C(NC(Cc1c[nH]c2ccccc12)C(=O)NN=Cc1cccc2ccccc12)c1cccs1 (stereo unspecified)	0.75
36	Cc1ccc(NN=Cc2ccc(N3CCOCC3)cc2)cc1C	0.67
37	Nc1nonc1-n1nnc(C(=O)NN=Cc2ccccc2O)c1CN1CCCC1	0.71
38	COC(=O)C1=C(C(=O)OC)C2N(Cc3ccccc3)c3ccccc3[C@@]23CC(C(=O)OC)N(C(=O)NC(C)(C)C)C3=N1 (stereo partly specified)	0.69
39	Cc1ccc(S(=O)(=O)N2CCC(C(=O)NN=Cc3cccn3C)CC2)cc1	0.65
40	CCOc1ccccc1C=NN1CCN(Cc2ccccc2)CC1	0.67
41	O=C(NN=Cc1ccncc1)c1ccc(-n2cccc2)cc1	0.67
42	CC(=NNC1=N[C@H]2CS(=O)(=O)C[C@H]2S1)c1ccccc1	0.7
43	CC1CCCCCCCCC(=O)OCCN(C(=O)OC(C)(C)C)C(C)CCCCCCCCC(=O)OCCN1C(=O)OC(C)(C)C (stereo unspecified)	0.69
44	COc1cc(C=NNC(=O)c2nnn(-c3nonc3N)c2C(C)C)ccc1O	0.7
45	COc1cccc(C(=O)NCC(=O)NN=Cc2cccc(OC(=O)c3ccc([N+](=O)[O-])cc3)c2)c1	0.72
46	CCN1C(=O)C2CCC3C(=NOC(C)c4cn(C(CO)Cc5ccccc5)nn4)CC(O)C(O)C3C2C1=O (stereo unspecified)	0.62
47	CC(C)COC(=O)C(C#N)=Cc1c[nH]c2ccccc12	0.69
48	CC(=NNC(=O)C1CC1)c1cccc(NC(=O)c2cccc(Cl)c2)c1	0.69
49	Cc1cccc(C=NNC(=O)c2cc(Br)ccc2O)n1	0.69
50	Cc1ccc(S(=O)(=O)NN=Cc2ccc3nccnc3c2)cc1	0.69
51	COc1cccc(C=Nn2c(-c3ccco3)nc3ccccc3c2=O)c1	0.81
52	Cc1cc(C)n(CC(=O)NN=Cc2cc(Br)cc([N+](=O)[O-])c2O)n1	0.67
53	O=C(CC1CC=CCCC(Cc2ccc(F)cc2)C(=O)OCC(c2ccccc2)NC1=O)NCCO (stereo unspecified)	0.72
54	CC(C(=O)NCC1CC1)C1C[C@]1(C)C(NC(=O)OCc1ccccc1)c1ccccc1 (stereo partly specified)	0.69
55	CC(Nc1ccc2ccccc2c1)C(=O)NN=Cc1ccncc1 (stereo unspecified)	0.66
56	N#CC(=NNc1ccc([N+](=O)[O-])cc1)C(=N)N1CCOCC1	0.68
57	CCn1cc(C(=O)O)c(=O)c2cc(F)c(NN=Cc3ccccc3)cc21	0.66
58	Cc1ccc(S(=O)(=O)NN=C2CC(c3ccccc3)Oc3ccccc32)cc1[N+](=O)[O-] (stereo unspecified)	0.67
59	O=S(=O)(c1cnccc1N1CCN(N=Cc2ccc(Br)cc2)CC1)N1CCCCC1	0.74
60	O=C(CC1CC=CCCC(=O)OC(c2ccccc2)CNC1=O)NC(CO)Cc1ccccc1 (stereo unspecified)	0.69

# Next records follow.
no.	Compound	E coli growth
61	Clc1ccc(C2C3CN(CC4CCCCC4)C(c4ccccc4)C34CC2(c2ccccc2)C4)cn1 (stereo unspecified)	0.73
62	COc1ccc(CCNC(=O)CON=Cc2cc3c(cc2Br)OCO3)cc1OC	0.68
63	Cc1c(C=NNc2ccc([N+](=O)[O-])cn2)c2ccccc2n1Cc1ccccc1	0.75
64	C(=NN1CCN(Cc2ccccc2)CC1)c1cccs1	0.68
65	O=[N+]([O-])c1ccc(C=NNC(=S)Nc2ccccc2F)o1	0.67
66	CCN1C(=O)C2C(c3ccc(C)cc3)N3C(=O)N(c4cccc(C)c4)C(=O)[C@@]3(Cc3ccccc3)C2C1=O (stereo partly specified)	0.68
67	Cc1ccc(S(=O)(=O)N=C(N)Nc2nc(C)c3ccc(C)cc3n2)cc1	0.75
68	O=C(Nc1ccccc1C(=O)NN=Cc1ccc(O)cc1)c1ccccc1	0.66
69	COc1ccc2cc(C(C)=NNC(=O)C3CC3)ccc2c1	0.71
70	CN1CCSC1=CC=C1C(=O)N(C)C(=S)N1C	0.7
71	COC(=O)NN=Cc1ccc(Oc2ccccc2)cc1	0.7
72	COc1ccc(Cc2nnc(NN=Cc3ccc(N(C)C)cc3)[nH]c2=O)cc1OC	0.65
73	CC(CC(=O)NCc1ccco1)=NNC(=O)C(c1ccccc1)c1ccccc1	0.73
74	O=C(CSc1ncn[nH]1)NN=Cc1ccc(Br)cc1	0.75
75	CN=C(N)NCCCC(N)C(=O)O (stereo unspecified)	0.7
76	COc1cc(C=NNS(=O)(=O)c2ccc(C(C)(C)C)cc2)cc([N+](=O)[O-])c1O	0.71
77	Cc1ccc(-c2ccc(C=NNC(=S)Nc3ccccc3)o2)cc1[N+](=O)[O-]	0.76
78	O=C(NN=C(c1ccccc1)c1cccnc1)C(O)(c1ccccc1)c1ccccc1	0.69
79	CC(=NNC(=O)c1ccc(Cl)s1)c1ccc(NC(=O)COc2ccc(Cl)cc2)cc1	0.79
80	CC(/C=C/c1ccccc1)=NNC(=O)c1ccncc1	0.66
81	Clc1cccc(Cl)c1C=NNc1c(Cl)cncc1Cl	0.65
82	CCN1C(=O)C2C(C1=O)C(c1ccc(OC)cc1)N1C(=O)c3ccccc3NC(=O)C21 (stereo unspecified)	0.68
83	CC(C=NNC(=O)c1ccccc1F)c1ccccc1 (stereo unspecified)	0.71
84	CCCCNC(=O)C1CC=CC2CCN(Cc3ccc(Cl)c(Cl)c3)C(=O)C21 (stereo unspecified)	0.64
85	Cc1nn(-c2ccccc2)c(N2CCCC2)c1C=NNC(=O)c1cc(-c2cccnc2)nc2ccccc12	0.71
86	NC(=S)NN=Cc1ccc(-c2cc(Cl)ccc2Cl)o1	0.64
87	O=C(Cc1cccs1)NN=C/C=C/c1ccccc1	0.68
88	Cc1ccc(C=NNC(=O)c2cc(-c3ccncc3)nc3ccccc23)o1	0.69
89	COC(=O)[C@@]12CCCCN1C(c1ccc(-c3ccc(Cl)c(Cl)c3)c(OC)c1)C1C(=O)N(C)C(=O)C12 (stereo partly specified)	0.65&0.71
90	COC(=O)C(Cc1ccccc1)NC(=O)OC1C(=O)c2ccc(OC)cc2OC1c1ccc2c(c1)OCO2 (stereo unspecified)	0.72

# The list goes on:
no.	Compound	E coli growth
91	CC(=O)n1cc(C=NNC(=O)c2ccc(Cl)cc2)c2ccccc21	0.65
92	S=C(NN=Cc1ccccc1Cl)Nc1cccc(Cl)c1Cl	0.61
93	Fc1ccc(NN=C2CCSc3sccc32)c(F)c1	0.69
94	CN=c1scc(C)n1N=Cc1ccc(O)cc1	0.66
95	CC(=NNC(=O)CNC(=O)C(c1ccccc1)c1ccccc1)c1ccc(C(C)(C)C)cc1	0.7
96	CC1(C)OC2C(COS(=O)(=O)O)OC(n3ccc(=O)[nH]c3=O)C2O1 (stereo unspecified)	0.71
97	CNC(=O)C1CCC(=O)N1 (stereo unspecified)	0.69
98	O=C(NN=C1CCCc2ccccc21)c1ccc([N+](=O)[O-])cc1Cl	0.7
99	O=C(CON=Cc1ccccc1)Nc1ccccc1C(=O)N1CCOCC1	0.69
100	COc1ccc(C=NN2CCN(C3c4ccccc4-c4ccccc43)CC2)cc1O	0.67
101	Cc1ccc(C=NNC(=O)CN2CCN(Cc3ccccc3Cl)CC2)o1	0.64
102	O=C(NN=Cc1cccn1-c1ccccc1)c1ccncc1	0.66
103	CC(=NNC(=O)c1ccccc1C)c1cccnc1	0.65
104	CNC(=S)NN=Cc1ccc(-c2ccc(Cl)c([N+](=O)[O-])c2)o1	0.68
105	CCCCOc1ccc(C(=O)NN=Cc2ccc(OCCN3CCCCC3)c(OC)c2)cc1	0.68
106	Cn1c(=NNC(=O)C2CCCCC2)sc2ccccc21	0.69
107	CC1(C)N=C(C=NO)C=[N+]1[O-]	0.81
108	CC(C)NC(=O)N(C)CC1Oc2ccc(NS(=O)(=O)c3ccccc3)cc2C(=O)N(C(C)CO)CC1C (stereo unspecified)	0.7&0.71
109	COc1cccc(C=NNC(=O)c2ccc(=O)[nH]n2)c1O	0.69
110	CCCOc1ccc(C=NO)cc1	0.69
111	CCC(C)C(CNC)NCC(Cc1cccc2ccccc12)NCCc1cccc(C(F)(F)F)c1 (stereo unspecified)	0.075
112	COc1ccc(S(=O)(=O)Nc2cccc3c2OC(CN(C)Cc2ccc(Cl)c(Cl)c2)C(C)CN(C(C)CO)C3=O)cc1 (stereo unspecified)	0.7
113	COc1cc(C=CC(=O)OCC2OC(OC3(CO)OC(CO)C(O)C3O)C(O)C(O)C2O)ccc1O (stereo unspecified)	0.71
114	COc1cc(C=NNC(=O)c2cc(C34CC5CC(CC(C5)C3)C4)[nH]n2)ccc1O	0.72
115	COc1cccc(C=NNC(=O)C(=O)NCc2cccnc2)c1	0.66
116	CC(=NNC(=O)CC1N=C(Cc2ccccc2)NNC1=O)c1ccc(Br)cc1 (stereo unspecified)	0.68
117	COc1ccc(-c2nn(-c3ccccc3)cc2C=NN=C(N)N)cc1OC	0.65
118	C=CCOc1c(Cl)cc(C=NO)cc1OC	0.65
119	CN(C)C=Nc1cc(=O)[nH]c(=O)n1C	0.66
120	COc1ccc(C=NNC(=O)Cc2cc(OC)c(OC)cc2[N+](=O)[O-])cc1	0.69
121	O=[N+]([O-])c1cccc(C=NNC2CCS(=O)(=O)C2)c1 (stereo unspecified)	0.67

# An excerpt of the results above:
no.	Compound	E coli growth
1	COc1cccc(C=NNC(=O)c2ccc(Cn3cc(Br)c([N+](=O)[O-])n3)o2)c1O	0.65
2	COc1ccc(C=NNC(=O)c2ccc(CN3c4cccc5cccc(c45)S3(=O)=O)cc2)cc1	0.69
3	O=C(NN=Cc1c[nH]c2ccccc12)c1cc(-c2ccc(-c3ccccc3)cc2)n[nH]1	0.72
4	CC(CC(=O)Nc1ccccc1C)=NNC(=O)Cc1csc(N)n1	0.71

# Part of the list above in another layout.
[106] Cn1c(=NNC(=O)C2CCCCC2)sc2ccccc21
  E coli growth: 0.69

[107] CC1(C)N=C(C=NO)C=[N+]1[O-]
  E coli growth: 0.81

[108] CC(C)NC(=O)N(C)CC1Oc2ccc(NS(=O)(=O)c3ccccc3)cc2C(=O)N(C(C)CO)CC1C (stereo unspecified)
  E coli growth: 0.7&0.71

[109] COc1cccc(C=NNC(=O)c2ccc(=O)[nH]n2)c1O
  E coli growth: 0.69
